Compound activity from PubChem.
motility = Vibrio cholerae motility inhibitors, OD read-out (AID 588778) | inhibition, %; hits with a dose series show IC50 in µg/mL | Vibrio cholerae motility, OD read-out; higher % means a stronger effect; test concentration not given here; primary cut-off and reference of the scale not given here; strong numbers were not always called active | 10,000 tested, under 10 active; in the data active = confirmed in a dose series
motility viability = also measured in motility; calls as there; inhibition, %; measured here: bacterial viability at 10 ug/mL;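 higher means fewer living bacteria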
Active calls of the source: *; i = inactive.

smiles | motility | motility viability
COc1cc(C=O)ccc1OCC(=O)Nc1cccc(SC)c1 | 13% | 4
Fc1ccc(CSc2nncn2NCc2ccc3c(c2)OCO3)cc1 | 12% | 1
NC(=NCc1ccc2c(c1)OCO2)NC(=O)c1ccccc1 | 10% | 1
CCc1ccc(CCC(=O)Nc2ncc(Cc3cccc(C(F)(F)F)c3)s2)o1 | 6% | 1
NS(=O)(=O)c1ccc(NC(=O)c2ccc(NC(=O)C3COc4ccccc4O3)cc2)cc1 (configuration not stated) | 9% | -1
Cc1cc2nnc(SCC(=O)Nc3sc4c(c3C#N)CCC4)n2c2ccccc12 | -5% | -5
CC(C)OC(=O)CSc1nnc(-c2cnccn2)n1C | -7% | -5
COc1ccc(NC(=S)Nc2ccc(Br)cc2F)cc1 | 19% | 3
CC1(C)CC2CC(C)(CN2C(=O)c2ccccc2NC(=O)CCCN2C(=O)c3ccccc3C2=O)C1 (configuration not stated) | -5% | -4
CCc1cc(Br)ccc1NC(=O)Cc1ccc(Cl)cc1 | -12% | -7
O=C(Nc1cc(C(F)(F)F)ccc1OCC1CCCO1)c1cccc([N+](=O)[O-])c1 (configuration not stated) | 6% | -2
COc1ccc(S(=O)(=O)Nc2ccccc2SC)c(Cl)c1Cl | -25% | -14
COc1ccc(NC(=O)Nc2ccccc2SC)c(OC)c1 | -18% | -2
CC(=O)c1c(C)nc(-c2cccs2)n1O | 4% | 2
O=C(CCC(=O)Nc1ccccc1Cl)NNC(=S)NCc1ccco1 | 7% | 31
COc1cc(NC(=O)C/C(C)=N/NC(=O)c2ccoc2C)cc(OC)c1 | 0% | 3
CCOC(=O)NCc1ccc(S(=O)(=O)Nc2c(C)cccc2C)cc1 | 11% | -1
CCCCC(=O)Nc1ccc(NC(=O)c2cc(Br)ccc2Cl)cc1OC | -1% | 2
COc1cc(S(=O)(=O)NC2CCCC2)ccc1F | 21% | 23
COCc1cc(C)nc(SCC(=O)Nc2ccc(Br)cc2F)c1C#N | 4% | -2
CCOc1ccc2[nH]c(=S)sc2c1 | 87% | 16
O=C(Nc1ccc(N2CCOCC2)c(Cl)c1)c1cc(F)c(F)cc1Cl | -2% | 3
CN(C)CCC(=O)c1ccc(Cl)c(Cl)c1 | 7% | -1
O=c1c(C=NCCN2CCOCC2)c(C(F)(F)F)[nH]n1-c1nc2ccccc2s1 | 17% | 32
O=C(NCc1ccc(C(=O)O)cc1)Nc1ccccc1C(F)(F)F | 7% | 19
Cc1cc(=O)[nH]c(SCC(=O)OC2CC(C)CCC2C(C)C)n1 (configuration not stated) | -16% | -7
COc1ccccc1CNC(=S)NCc1ccc(Cl)cc1 | 33% | 4
O=S(=O)(NCc1ccccc1)N1CCCCC1 | -2% | -8
Cn1cnnc1Sc1ccc([N+](=O)[O-])c2cccnc12 | 48% | 18
CC(=O)N1CCN(C(=S)c2ccc([N+](=O)[O-])cc2)CC1 | 15% | 27

Structures above containing an aryl thioether with sulfur outside any ring, in the order listed:
smiles | motility | motility viability
COc1cc(C=O)ccc1OCC(=O)Nc1cccc(SC)c1 | 13% | 4
Fc1ccc(CSc2nncn2NCc2ccc3c(c2)OCO3)cc1 | 12% | 1
Cc1cc2nnc(SCC(=O)Nc3sc4c(c3C#N)CCC4)n2c2ccccc12 | -5% | -5
CC(C)OC(=O)CSc1nnc(-c2cnccn2)n1C | -7% | -5
COc1ccc(S(=O)(=O)Nc2ccccc2SC)c(Cl)c1Cl | -25% | -14
COc1ccc(NC(=O)Nc2ccccc2SC)c(OC)c1 | -18% | -2
COCc1cc(C)nc(SCC(=O)Nc2ccc(Br)cc2F)c1C#N | 4% | -2
Cc1cc(=O)[nH]c(SCC(=O)OC2CC(C)CCC2C(C)C)n1 (configuration not stated) | -16% | -7
Cn1cnnc1Sc1ccc([N+](=O)[O-])c2cccnc12 | 48% | 18

More records
smiles | motility | motility viability
Cc1ccc2[nH]c3c(c2c1)CCCC3C#N (configuration not stated) | 27% | 7
Nc1cc(N)nc(SCc2cccnc2)n1 | -4% | -5
C=CCn1c(CNC(=O)c2ccc(OC)c(OC)c2)nnc1SCC(=O)Nc1sc2c(c1C#N)CCCC2 | 3% | 7
O=C(Nc1nncs1)c1ccccc1Oc1ccccc1 | 15% | -8
CC1=C(C(=O)Nc2ccccc2)C(c2ccccc2OCc2ccc(C)cc2)NC(=S)N1 (configuration not stated) | -2% | -4
CNc1ccc(C(O)(C(F)(F)F)C(F)(F)F)cc1C(O)(C(F)(F)F)C(F)(F)F | 24% | 7
COC1(OC)c2no[n+]([O-])c2CCC1O (configuration not stated) | 7% | 1
Cc1nnc2c3c(-c4ccccc4)csc3ncn12 | 10% | -3
S=C(Nc1ccc(Oc2ccccc2)cc1)Nc1cccc2ccccc12 | -4% | 16
O=C(COc1ccc2c(c1)OCO2)Nc1ccc2c(c1)oc1ccccc12 | 6% | 1
O=C(COc1ccc(F)cc1)Nc1ncccn1 | 7% | 3
COC(=O)c1ccccc1NC(=O)CSc1nc(-c2ccc(OC)cc2)ccc1C#N | 6% | -3
Cc1ccc(CCC(=O)Nc2ccc(SC(F)F)cc2)o1 | 3% | -1
CCn1c(CC(=O)Nc2ccccc2)nnc1SCc1ccc(Br)cc1 | 1% | -3
O=S(=O)(Cc1ccccc1)Nc1ccc2c(c1)OCO2 | -2% | 1
COc1ccc(-c2cc(C(=O)OCc3ccco3)c3ccccc3n2)cc1OC | i | -2
O=C1NC(=O)C2C1C(c1ccc([N+](=O)[O-])cc1)NN2Cc1ccccc1 (configuration not stated) | 11% | 4
Cn1c(=O)c2cc(S(=O)(=O)N3CCC(c4ccccc4)CC3)ccc2n(C)c1=O | -14% | 1
CCOC(=O)CNc1nc2ccccc2n2cnnc12 | 0% | -2
Cc1ccc(S(=O)(=O)N(CC(=O)NCC2CCCO2)c2cccc(C)c2C)cc1 (configuration not stated) | 24% | 3
Cc1ccc(NC(=O)OC(C)(C)C)cc1F | -7% | 3
Cc1ccc2c(C)nc(/N=C(/N)NC(=O)Cc3ccc(Cl)cc3)nc2c1 | -7% | -3
O=C(CCN1C(=O)C2CC=C(Cl)CC2C1=O)Nc1ccc(Cl)c(Cl)c1 (configuration not stated) | 14% | -2
COc1cc(CN2CCN(Cc3ccco3)CC2)cc(OC)c1O | 4% | 2
O=Cc1ccc(OCc2ccc(S(=O)(=O)c3ccccc3)cc2)cc1 | 1% | 3
CN1CCN(NC(=O)c2cc3nc(-c4ccc(Cl)s4)cc(C(F)(F)F)n3n2)CC1 | 8% | 2
O=C(Nc1nc(-c2ccc(Br)cc2)cs1)c1ccc(-c2ccccc2[N+](=O)[O-])o1 | -14% | -7
S=c1oc(-c2ccncc2)nn1CCc1ccncc1 | 8% | 23
O=C(O)CSc1nc2c(-c3ccco3)c3c(nc2o1)CCCC3 | 4% | 3
COc1ccc(OC)c(NC(=O)Cn2c(C)ccc2C)c1 | 5% | 2
O=[N+]([O-])c1cccc(N2CCOCC2)c1 | 17% | 5
O=C(O)c1ccc(C(=O)c2cccc([N+](=O)[O-])c2)cc1 | -17% | -5
COC(=O)c1c(C(F)(F)F)cc(-c2ccccc2)nc1C | 10% | -5
Cc1cc(Cl)ccc1OCc1nnc(NC(=O)c2cccc(F)c2)s1 | 9% | 2
COC(=O)C1=CN(Cc2cccs2)C=C(C(=O)OC)C1c1cccc(Cl)c1 | -3% | -6
COc1ccc(/C=C/C(=O)Nc2cc(C)cc(C)c2)cc1 | -22% | -10
CN1CCN(c2nc(N3CCCc4ccccc43)nc(N3CCCc4ccccc43)n2)CC1 | -5% | -1
CCc1c(O)n(-c2ccccc2)c(=S)[nH]c1=O | -19% | -5
Cc1cc(C)cc(NS(=O)(=O)c2ccc3oc(=O)ccc3c2)c1 | 4% | 5
CC(Sc1ncn[nH]1)C(=O)Nc1ccc(Cl)cc1 (configuration not stated) | 27% | 6
C#CCn1c(-c2ccccc2Br)nc2ccccc21 | 6% | 0
COc1cccc(NC(=O)CC2OCCN(Cc3ccccc3)C2=O)c1 (configuration not stated) | 5% | 0
CCCCOc1ccccc1NC(=O)c1ccccc1Br | 10% | 4
O=C(CCN1C(=O)c2ccccc2C1=O)Nc1ccncc1 | 4% | -2
N/C(=N\OS(=O)(=O)c1cc(Cl)ccc1Cl)c1ccncc1 | 3% | 10

A draw from above in order of SMILES length, high to low:
smiles | motility | motility viability
Cc1cc(C)cc(NS(=O)(=O)c2ccc3oc(=O)ccc3c2)c1 | 4% | 5
O=C(CCN1C(=O)c2ccccc2C1=O)Nc1ccncc1 | 4% | -2
CC(Sc1ncn[nH]1)C(=O)Nc1ccc(Cl)cc1 (configuration not stated) | 27% | 6

(cont.)
O=C(NCc1ccc(Cl)c(Cl)c1)C(Cl)Cl
  motility: 38% | motility viability: 6
COc1cc2c(cc1NC(=S)Nc1cc(C(F)(F)F)ccc1Cl)oc1ccccc12
  motility: 16% | motility viability: 28
CC(=O)c1nc(N2C(=O)C3CC=C(C)CC3C2=O)sc1C (configuration not stated)
  motility: 9% | motility viability: 1
Cn1cnnc1-c1cccc(NC(=O)c2ccc(Cl)c(Cl)c2)c1
  motility: 11% | motility viability: 0
Clc1ccccc1CSc1ncnc2nc[nH]c12
  motility: 8% | motility viability: 2
N#Cc1c(N2C(=O)c3ccc(C(=O)O)cc3C2=O)sc2c1CCCC2
  motility: 1% | motility viability: -8
O=C(NCCc1ccccc1)c1ccc(CNS(=O)(=O)c2cccc(Cl)c2)cc1
  motility: -4% | motility viability: -11
CCOc1ccnc2sc(C(=O)c3cccnc3)c(N)c12
  motility: 4% | motility viability: -8
O=C(NCCN1CCOCC1)c1c(F)c(F)c(F)c(F)c1F
  motility: 4% | motility viability: -1
Cc1nc(NC(=O)C2CC3CCCC(C2)C3=O)sc1C (configuration not stated)
  motility: 14% | motility viability: 33

COc1cc(OC)c(S(=O)(=O)N(C)c2ccccc2)cc1S(=O)(=O)N(C)c1ccccc1
  motility: 11% | motility viability: -8
Cc1cccc(C)c1N1CCN(C(=O)N2CCCCC2)CC1
  motility: 9% | motility viability: -5
O=C(Nc1ccccc1N1CCOCC1)c1ccc(OCc2ccccc2)cc1
  motility: -6% | motility viability: 1
COc1ccc(Cl)cc1-c1n[nH]c(=S)o1
  motility: 11% | motility viability: -1
CCc1cccc2c(C#N)cn(CC(=O)N3CCOCC3)c12
  motility: 7% | motility viability: 1
O=[N+]([O-])c1ccc2c(c1)nc1n2CCN(CC2CCCO2)C1 (configuration not stated)
  motility: -3% | motility viability: -4
O=C(O)c1ccc(COc2c(F)c(F)cc(F)c2F)o1
  motility: -10% | motility viability: -6
COc1ccccc1C1(CC(=O)Nc2nccs2)CCOC(C(C)C)C1 (configuration not stated)
  motility: -22% | motility viability: -5
COCCn1c(-c2ccccc2)n[nH]c1=S
  motility: -1% | motility viability: -5
O=C1CC(Cc2ccccc2)C(=O)N1CCCn1ccnc1 (configuration not stated)
  motility: 0% | motility viability: -2

CCCOc1ccc(N2C(=O)CC(N3CCC(O)(c4cccc(C(F)(F)F)c4)CC3)C2=O)cc1 (configuration not stated)
  motility: 2% | motility viability: -5
CCCCSc1nc2ccc(Nc3nc(N4CCOCC4)nc(N4CCOCC4)n3)cc2s1
  motility: 21% | motility viability: 8
Cc1cc(CSc2ccccc2)ccc1NC(=O)Cc1ccccc1[N+](=O)[O-]
  motility: 5% | motility viability: -2
CCOC(=O)N1CCN(c2nc(-c3ccc(F)cc3)cs2)CC1
  motility: 26% | motility viability: 12
O=C(NCCc1ccccc1Cl)C(=O)NC1CC1
  motility: -8% | motility viability: -5
CN(c1ccc(C(=O)NCCSCc2ccco2)cc1)S(C)(=O)=O
  motility: 11% | motility viability: 1
O=C(Nc1ccc(Cc2ccncc2)cc1)c1ccc(-c2cccc(C(F)(F)F)c2)o1
  motility: 0% | motility viability: 4
CC(C)NC(=S)NC(=O)c1cccnc1
  motility: 3% | motility viability: -2
CCn1cc(C(=O)O)c(=O)c2cc(Br)ccc21
  motility: 96% | motility viability: 100
COC(=O)c1sccc1NC(=S)Nc1ccc(Br)cc1Cl
  motility: 14% | motility viability: -8

Compound profiles, from the list above:
`CN1CCN(NC(=O)c2cc3nc(-c4ccc(Cl)s4)cc(C(F)(F)F)n3n2)CC1` as listed: motility: 8%; motility viability: 2
`O=S(=O)(Cc1ccccc1)Nc1ccc2c(c1)OCO2` as listed: motility: -2%; motility viability: 1
`COCc1cc(C)nc(SCC(=O)Nc2ccc(Br)cc2F)c1C#N` as listed: motility: 4%; motility viability: -2

Carrying on:
Cc1cc(Sc2ncnc(N)c2[N+](=O)[O-])ncn1
  motility: 12% | motility viability: 5
CCN(CC)C(=S)NC(=O)c1cccc([N+](=O)[O-])c1
  motility: 56% | motility viability: 16
CC1CCN(S(=O)(=O)c2ccc3[nH]c(=O)[nH]c3c2)CC1
  motility: -12% | motility viability: -10
CCN(CC)c1ccc(NC(=O)OC)cc1
  motility: 7% | motility viability: -2
O=C(O)C1CCN(c2ccc(C(F)(F)F)cn2)CC1
  motility: 5% | motility viability: 1
Cc1nc2ccc(Nc3ccncc3)cc2s1
  motility: 22% | motility viability: 6
CN(C)CCCNS(=O)(=O)c1ccc(F)cc1
  motility: 1% | motility viability: 0
Cc1ccc2cccc(SCc3nc(N)nc(Nc4ccccc4)n3)c2n1
  motility: 5% | motility viability: -4
O=C(Nc1cc(C(F)(F)F)ccc1N1CCCC1)c1ccccc1Br
  motility: 6% | motility viability: 8
CC(=O)Nc1ccc(C)c(I)c1
  motility: 41% | motility viability: 12

Nc1ncnc2nc(Sc3c([N+](=O)[O-])cc(Br)c4nsnc34)[nH]c12
  motility: 49% | motility viability: 14
O=C(COc1ccc2ccccc2c1)NN1CCCCC1
  motility: 28% | motility viability: 0
O=C(c1ccc(S(=O)(=O)N2CCCCC2)cc1)n1nnc2ccccc21
  motility: 8% | motility viability: 0
N#Cc1c(C(F)(F)F)cc(=O)n2c1[nH]c1ccccc12
  motility: 55% | motility viability: 8
Cc1cc(Br)ccc1-c1ccc(-c2nc3sc(C)c(C)c3c(=O)[nH]2)o1
  motility: -16% | motility viability: -4
CCc1cc2c(=O)n(CC(=O)NCCc3ccc(OC)c(OC)c3)cnc2s1
  motility: -3% | motility viability: -5
Oc1ccc(CSc2ccccc2)c2cccnc12
  motility: 8% | motility viability: -1
Cc1nnc(SCC(=O)Nc2ccc(S(N)(=O)=O)cc2)s1
  motility: -15% | motility viability: -6
OCCNCc1ccc(N2CCCC2)cc1
  motility: -3% | motility viability: 1
CC1(C)CC(=O)C2=C(C1)N(Cc1ccco1)C(=O)NC2(C(F)(F)F)C(F)(F)F
  motility: -6% | motility viability: -2

The list is partial; rates above refer to the full screens.
